# Compound activity (PubChem)
# Ecoli rRNA inh – inhibitors of bacterial rRNA selective over humanized ribosomes | E. coli WT GFP vs humanized-ribosome RFP mutants, fluorescence, 24 h; active compounds read low; DMSO median 0, no signal -100 | GFP signal change (wild-type ribosome), % (no concentration beside the values) | 350,000 compounds, 1.6% hits | AID 720706;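 active means significant combined selectivity score with lowered wild-type GFP, culture density cut under 30%, mutant RFP and density less affected; inactive means any of these conditions unmet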; further: one replicate is shown; some compounds called inactive have numbers as strong as hits
# HNF4A DNA FP – change in binding of human HNF4 alpha to DNA | HNF4a-FITC DNA binding, fluorescence polarization, 1 h | activity change, % at 10 µM | 360,000 compounds, 0.3% hits | AID 1224865; in the data active means activity change above about 30%, passing the limit was not always enough;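 further: controls were the assay level and a saturating level of protein; the project sought stronger binding though the title names inhibitors; some compounds called inactive have numbers as strong as hits; positive values seem to mean higher polarization but the record does not say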
# Ecoli growth – E. coli growth inhibition; Escherichia coli growth, OD600, 23 h; active compounds read low; OD600 absorbance (no concentration beside the values); 330,000 compounds, 0.21% hits; AID 1053175;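 active means OD600 absorbance below the run mean of sample wells minus 3.6 SD, in any replicate, cut at about 0.56 in these data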;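 further: stock transfer was 300 nL into about 60 µL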
# Vif TR-FRET – HIV-1 Vif–A3G interaction blockers – biochemical, TR-FRET, GST-Vif 1-94, biotin-A3G peptide, dose response retest, primary screen (AID 1117319) | TR-FRET GST-Vif / biotin-A3G peptide binding; higher % means a stronger effect; test concentration not given here; strong numbers were not always called active | one-dose inhibition, %; IC50 in µM for titrated hits | 260,000 compounds, 0.57% hits;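 active means above the screen mean plus three standard deviations and confirmed in dose response; inconclusive means results disagree or hit not tested in dose response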;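 further: Vif residues 1-94 fused to GST binding biotinylated APOBEC3G peptide 110-148; 0% = full assay without inhibitor and 100% = GST in place of GST-Vif; retest series ran down from 100 µM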
# FGF22 binding – FGF22 (human) thermal shift binding. calls only at 9.99 µM. recombinant FGF22 thermal shift, SYPRO orange fluorescence; percent of sucrose octasulfate shift, DMSO zero. 340,000 compounds, 1.5% hits;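 active means melting point raised past a set limit in the mean and every replicate; inconclusive means no clear call; three in four hits are not shown here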
# Target sequence (Q9HCT0 whole entry, looked up): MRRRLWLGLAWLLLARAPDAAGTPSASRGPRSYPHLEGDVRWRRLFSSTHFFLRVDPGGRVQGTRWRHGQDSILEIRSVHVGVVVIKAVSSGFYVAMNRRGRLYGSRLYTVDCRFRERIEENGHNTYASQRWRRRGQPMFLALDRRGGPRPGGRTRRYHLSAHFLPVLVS
# ALR inh – blocks human ALR sulfhydryl oxidase activity; P55789; purified ALR, DTT oxidation, H2O2 HRP-luminol luminescence; inhibition, % (no concentration beside the values); 290,000 compounds, 3.8% hits;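 active means mean and each replicate at 75% or more; inconclusive means only one of the two met; inactive means neither met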;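 further: stock transfer was 7.5 nL into about 7.5 µL; 0% = neutral wells and 100% = wells with inactivated enzyme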
# Target sequence (P55789 whole entry, looked up): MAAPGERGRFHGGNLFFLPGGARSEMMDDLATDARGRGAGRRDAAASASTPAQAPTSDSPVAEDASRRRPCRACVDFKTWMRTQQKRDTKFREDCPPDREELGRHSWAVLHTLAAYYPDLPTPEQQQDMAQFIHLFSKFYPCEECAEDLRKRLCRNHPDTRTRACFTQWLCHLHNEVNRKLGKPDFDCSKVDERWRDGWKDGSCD
# MLL AF4-AF9 inh – MLL-AF4/AF9 protein interaction inhibition | AlphaScreen, biotin-AF4 peptide binding to FLAG-AF9 | inhibition, % at 10 µM | 350,000 compounds, 0.47% hits | AID 651704;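 active means every replicate reaching a set inhibition limit, whatever the replicate mean, cut at about 25% in these data; inconclusive means mean inhibition reaches that limit but some replicates miss it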;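 further: 0% = plate neutral control median and 100% = total signal loss; the record names both 10 and 1 µM as test concentration; the first replicate is given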
# Target sequence (P42568 whole entry, looked up): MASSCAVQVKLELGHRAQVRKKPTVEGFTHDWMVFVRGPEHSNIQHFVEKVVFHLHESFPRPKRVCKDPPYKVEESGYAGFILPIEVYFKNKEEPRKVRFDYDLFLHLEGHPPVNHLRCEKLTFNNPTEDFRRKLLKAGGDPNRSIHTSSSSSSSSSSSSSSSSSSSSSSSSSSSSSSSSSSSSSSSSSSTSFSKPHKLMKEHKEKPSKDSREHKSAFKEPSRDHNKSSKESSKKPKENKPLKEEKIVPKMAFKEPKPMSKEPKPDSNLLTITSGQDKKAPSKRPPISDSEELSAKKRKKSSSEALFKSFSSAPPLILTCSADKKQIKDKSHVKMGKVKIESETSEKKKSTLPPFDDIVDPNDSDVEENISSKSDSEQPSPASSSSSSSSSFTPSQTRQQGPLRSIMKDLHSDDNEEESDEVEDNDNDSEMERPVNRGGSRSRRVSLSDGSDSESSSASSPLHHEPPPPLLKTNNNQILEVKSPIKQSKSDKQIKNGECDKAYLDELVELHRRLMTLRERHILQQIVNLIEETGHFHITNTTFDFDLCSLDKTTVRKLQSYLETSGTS
# Ecoli rRNA inh OD600 – recorded beside Ecoli rRNA inh, whose call it bears; OD600 change, %; measured here: OD600 growth;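 optical density of the mix in the first replicate; 0 = DMSO median and -100 = no signal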
# Ecoli rRNA inh RFP – recorded beside Ecoli rRNA inh, whose call it bears; RFP signal change, %; measured here: RFP humanized mutant strains;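 first replicate; 0 = DMSO median and -100 = no signal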
# * marks the source's active call; other numbers are inactive results; i = inactive; u = inconclusive; x = no result given; & = joins results of further samples.
molecule,Ecoli rRNA inh,Ecoli rRNA inh OD600,Ecoli rRNA inh RFP,HNF4A DNA FP,Ecoli growth,Vif TR-FRET,FGF22 binding,ALR inh,MLL AF4-AF9 inh
N=c1c(C(=O)NCc2ccc(F)cc2)cc2c(=O)n3ccccc3nc2n1Cc1cccnc1,x,x,x,-4.2,0.62,1%&4%,x,-5,x
CN1C(=O)c2cc(NS(=O)(=O)CC(F)(F)F)ccc2OC[C@H]2O[C@@H](CC(=O)NCc3ccc(Cl)c(Cl)c3)CC[C@@H]21,-3,-7,-0.8,x,x,x,i,x,-0.8
COCCCNC(=O)CCCn1c(=O)c2ccccc2n(Cc2cccc([N+](=O)[O-])c2)c1=O,-4,3,3.1,2.7,0.69,21%,i,-2,-0.3
CCC(=O)N1CCC(NC(=O)Nc2ccc(OC(F)(F)F)cc2)CC1,-7,-4,-7.7,2.7,0.69,x,i,-1,-0.7
C[C@H]1CN([C@@H](C)CO)C(=O)c2cc(-c3cccc(C#N)c3)cnc2O[C@H]1CN(C)C(=O)C1CCC1,0,12,-2.9,x,x,x,i,x,-4.0
COc1ccc(OCCn2cc(C=O)c3ccccc32)cc1,2,-7,-2.0,-2.8,0.65,x,i,1,-4.6
CNC[C@@H]1OCCCC[C@H](C)Oc2ccc(NS(C)(=O)=O)cc2C(=O)N([C@H](C)CO)C[C@@H]1C,1,2,-2.1,x,x,x,i,x,-20
O=C(CN1CCN(c2ccccn2)CC1)Nc1cccc(Cl)c1Cl,-15,-27,-2.7,1.0,0.65,-13%,i,1,2.9
CCOC(=O)c1sc(=S)n(C)c1NC(=O)c1ccc(F)cc1,x,x,x,1.1,0.69,1%,x,-1,x
CCOC(=O)Cn1nc(C)c2ccccc2c1=O,x,x,x,-0.9,0.69,u,x,0,x
COC(=O)c1c(NC(=O)C2SC(=NC3CCCCC3)C(C(N)=O)=C2N)sc2c1CCCC2 (configuration not stated),x,x,x,0.3,0.68,9%,x,0,x
Cc1cc(C(=O)Nc2cccc3c2O[C@@H](CN(C)Cc2ccncc2)[C@H](C)CN([C@@H](C)CO)C3=O)n(C)n1,0,0,-0.8,x,x,x,i,x,-2.4
Nc1ncnc(Sc2ccc(Cl)cc2)c1[N+](=O)[O-],24,10,-8.5,3.8,0.72,-1%,i,x,1.6
NNC(=O)Cn1c(-c2ccccn2)nc2ccccc21,5,7,6.8,0.4,0.69,1%,i,-1,-2.5
Cc1nnsc1C(=O)N/N=C/c1ccc(OC(F)(F)F)cc1,6,9,-1.9,-1.2,x,x,x,-11,2.2
CC1(C)CC(O)CC(C)(C)N1CC(O)COCc1ccccc1 (configuration not stated),16,6,0.5,0.6,0.7,x,i,x,-1.5
COc1ccccc1NC(=O)CCN1CCCCCC1,x,x,x,2.8,0.7,-2%,x,5,x
COc1ccc(/C(N)=N/OC(=O)CSc2ccccc2)cc1,x,x,x,2.3,0.75,-1%,x,-15,x
CCS(=O)(=O)NCC[C@@H]1CC[C@@H](NC(=O)C2CCOCC2)[C@H](CO)O1,2,0,-0.4,x,x,x,i,x,-3.2
CSc1cccc(NC(=O)C2(S(=O)(=O)c3ccc(C)cc3)CC2)c1,-7,-6,0.1,2.3,0.68,12%,i,-1,-4.5
CNC(=O)C[C@H]1CC[C@H]2[C@H](COc3ccc(NC(=O)Nc4ccc(Cl)cc4)cc3C(=O)N2C)O1,-2,0,-3.2,x,x,x,i,x,-0.6
COc1ccc(NC(=O)CSc2nnc(Cc3cccn3C)n2-c2ccc(F)cc2)cc1OC,-2,1,-1.9,2.6,0.76,9%&-8%,i,1,4.3
Cc1ccccc1OCCCc1c(C)n[nH]c1C,-57,-80,-36,6.7,0.67,-3%,i,-4,1.9
Cc1cc(C(=O)OCC(=O)N2CC(C)OC(C)C2)ccc1[N+](=O)[O-] (configuration not stated),7,-1,-5.5,-1.0,0.69,3%,i,-3,-1.6
CCCN1CN=C(Nc2nc3ccccc3o2)NC1,18,17,0.3,0.9,0.64,u,i,6,-2.1
CC(C)CNc1ncnc2c1ncn2[C@H]1CN(Cc2ccc(C(=O)O)cc2)C[C@@H](CO)O1,x,x,x,1.6,x,x,i,x,-0.1
Nc1ccc(S(=O)C(F)(F)F)cc1 (configuration not stated),10,11,2.3,2.6,0.64,-4%,i,-3,-2.9
CN(CC(=O)Nc1ccc(SC(F)F)cc1)C1CCCCC1,-13,-22,0.4,-2.1,0.64,-4%,i,-19,1.7
Cc1cc(C)cc(NC(=O)c2cc3c(=O)n4ccccc4nc3s2)c1,4,10,0.8,2.4,x,x,i,9,-1.0
Cc1ccc(S(=O)(=O)N(C)CC(=O)NNC(=O)Cc2ccccc2F)cc1,7,5,2.7,-2.0,0.69,x,i,5,-1.8
CC(=O)N1[C@@H]2Cn3c(ccc(-c4cccnc4)c3=O)[C@H]1[C@@H](C(=O)N1CCc3ccccc3C1)[C@@H]2CO,0,-1,0.0,x,x,x,i,x,3.1
CC(C)(C)NC(=S)N1CCC(C(=O)c2ccc(Cl)cc2)CC1,4,-4,2.0,0.3,0.65,x,i,-1,0.6
O=c1ccn(Cc2ccccc2)c(SCc2ccccc2)n1,3,3,-1.5,0.3,x,x,i,x,-2.1
CN(C)c1nc(NS(=O)(=O)c2ccc(Cl)cc2)nc(N(C)C)n1,x,x,x,2.4,0.65,-3%,x,-5,x
CCCOc1ccc(C2C(=O)N(C3CCCCCC3)CC(=O)N2Cc2ccco2)cc1OC (configuration not stated),x,x,x,1.7,0.61,u,x,4,x
COc1ccc(Nc2nc(NCC3CCCO3)nc(N)c2[N+](=O)[O-])cc1 (configuration not stated),x,x,x,-2.0,0.57,-2%,i,-5,-1.4
CN(C)S(=O)(=O)c1cccc(N=c2scc(-c3ccc4c(c3)NC(=O)CO4)n2CC2CCCO2)c1 (configuration not stated),x,x,x,0.2,0.7,-23%,x,-6,x
Cc1cc(C(=O)Nc2ccncc2)c(C)o1,-3,-1,1.7,-1.9,0.61,6%,i,x,-11
O=C(Cc1ccc(Cl)cc1)N1CCN(c2ccc(F)cc2)CC1,-9,-17,-0.1,1.3,0.67,-4%,i,65,0.3
CN1CCN(C(=O)c2cc3c(c(-c4cccc(-c5cccc(F)c5)c4)n2)[C@H](CCO)N(S(=O)C(C)(C)C)C3)CC1 (some centres not stated),-6,-4,1.3,x,x,x,i,x,-7.5
CCc1cc(=O)oc2cc(C)cc(OCC(=O)NCCCn3ccnc3)c12,0,-6,-1.2,-0.1,0.69,x,i,-1,4.1
Cc1cc(NC(=O)CSc2nc(Cc3ccc(O)cc3)c(C)[nH]2)no1,8,10,1.7,-3.6,0.67,x,i,55,0.9
CCCNC(=O)Nc1ccc2c(c1)OC[C@H](C)N(CCC)C[C@@H](C)[C@@H](OC)CN(C)C2=O,1,2,-1.0,x,x,x,i,x,-5.5
COc1ccc(C(=O)NCCNC(=O)c2ccccn2)cc1,-3,0,-1.6,-0.6,0.7,x,i,-1,0.3
COc1ccc(OC)c(/C=N/NC(=O)c2cc3c(OC)c(OC)ccc3[nH]2)c1,5,16,3.6,0.3,x,x,i,-4,5.3
COc1ccc(CN(C)C[C@@H]2Oc3ccc(NS(=O)(=O)c4ccc(C)cc4)cc3C(=O)N([C@H](C)CO)C[C@@H]2C)cc1,8,9,0.6,x,x,x,i,x,-7.4
Nn1c(SCC(=O)Nc2ccccc2Oc2ccccc2)nnc1C1CC1,4,2,-0.9,0.0,0.68,-6%,i,x,-0.7
CCOC(=O)C1(Cc2cccc(OC)c2)CCN(Cc2cccc3c2OCO3)CC1,-24,-29,-4.7,-8.0,0.68,-6%,x,-11,6.8
COc1ccc(Cl)cc1C(=O)N1CCN=C1SC,16,13,3.5,2.0,0.71,-4%,i,3,-0.1
O=C(CSc1nnc(NC(=O)c2ccccc2[N+](=O)[O-])s1)NC1CCCC1,-14,-5,-3.1,4.8,x,0%,i,16,-10
CCOC(=O)C1=CCN(S(=O)(=O)c2ccc(Cl)cc2)C1c1cccc(Cl)c1 (configuration not stated),-9,-14,-4.4,x,x,x,i,x,-2.9
CCOc1ccc2ccccc2c1C(=O)N[C@@H]1C(=O)N2[C@@H]1SC(C)(C)[C@@H]2C(=O)O,-1,-3,-0.7,-4.0&-0.2,x,1%,i,x,-3.5&-2.4
Cc1cc(C)c(NC(=O)/C(=C/c2ccco2)c2ccccc2)c(C)c1,x,x,x,-1.6,0.71,5%,x,-6,x
O=C(NCCc1cccc(F)c1)C1CCC(=O)N(C2CCCCCC2)C1 (configuration not stated),-1,-12,3.6,1.3,0.71,3%,i,x,0.5
COc1ccc(NC(=O)Nc2ccc3c(c2)C(=O)N([C@@H](C)CO)C[C@@H](C)[C@@H](CN(C)S(=O)(=O)c2ccc(C)cc2)OCCCC[C@@H](C)O3)cc1,-4,4,-3.1,x,x,x,i,x,-7.0
COC(=O)c1ccccc1NC(=O)/C=N/O,x,x,x,1.1,x,7%,x,9,x
Cc1cc(N=Nc2ccc(Cl)cc2)cc(CN2CCOCC2)c1O,x,x,x,0.4,0.66,-4%,i,x,30*
COc1ccc(/C(=N\O)c2ncc(C(F)(F)F)cc2Cl)cc1,x,x,x,-0.4,x,21%,x,-1,x
COc1cccc(-c2ccc([C@@H]3[C@@H](CO)N(C(=O)Cc4ccccc4)[C@H]3C#N)cc2)c1,-13,-10,-2.4,x,x,x,i,x,0.1
CC(=O)N/C(=C\c1ccc(F)cc1)C(=O)NC(C(=O)O)C(C)C (configuration not stated),22,12,0.0,-0.4,0.63,22%,x,2,4.2

# (cont.)
molecule,Ecoli rRNA inh,Ecoli rRNA inh OD600,Ecoli rRNA inh RFP,HNF4A DNA FP,Ecoli growth,Vif TR-FRET,FGF22 binding,ALR inh,MLL AF4-AF9 inh
O=C(Nc1cccnc1)c1cnn2c(C(F)F)cc(C3CC3)nc12,x,x,x,-2.5,0.77,1%,x,39,x
Cc1ccc(S(=O)(=O)NCCOCCNS(=O)(=O)c2ccc(C)cc2)cc1,x,x,x,-2.4,0.68,-4%,x,-2,x
O=C1CSC(c2ccccc2)N1c1nc(-c2ccc(Cl)cc2Cl)cs1 (configuration not stated),20,9,-4.4,-3.9,0.68,6%,i,-3,5.5
Cc1cc(C)cc(-n2c(C)cc(C(=O)CSc3nnnn3C)c2C)c1,x,x,x,2.8,0.75,22%,x,-4,x
Cc1ccc(CN2CCC(n3nccc3NC(=O)CCOc3ccccc3)CC2)o1,8,16,2.5,-4.4,0.7,x,i,-3,-0.9
O=C(CCCCCn1c(=S)[nH]c2ccccc2c1=O)NCc1ccc2c(c1)OCO2,x,x,x,2.0,0.69,-12%,x,-2,x
COCCCn1c(O)c(/C=C2\N=C(C#N)C(=Nc3ccc(C)cc3)O2)sc1=S,11,2,12,110,x,13%,i,-2,3.9
CC(=O)Oc1ccc(C(=O)Nc2cccc(NC(=O)c3ccco3)c2)cc1,-6,-3,2.3,-0.1,0.66,x,i,16,-2.4

# An excerpt; rates above refer to the full screens.
